Tg IFNy HTS – T. gondii growth inhibition with IFN-gamma, primary screen, cell-based | Toxoplasma gondii growth in IFN-gamma-treated host cells; active compounds read low; reference of the scale not given here | activity change, negative = inhibition, %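 (about 20 µM by stock and volumes)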 | 3.8% of 69,000 active;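 active = below -70%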;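 also: host cells are HeLa cells infected with Toxoplasma gondii; parasite growth read as luciferase light; one replicate is shown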
Numbers without * were called inactive; i = inactive; & = joins results of further samples. An excerpt (hit frequency here may not be typical).

SMILES	Tg IFNy HTS
CCC(C)C1N=C2c3ccccc3N=C(SCc3ccc(C(C)(C)C)cc3)N2C1=O (stereo not given)	-17.1
Cc1nn(C)c(Oc2ccc(Cl)cc2)c1CN1CC[C@H](CO)[C@@H](O)C1	-13.5
COC(=O)C1C(=O)CC(C)(O)C(C(=O)OC)C1c1ccc(OC)c(OC)c1 (stereo not given)	0.4
OCCOCc1nnn2c1CN(C1CCOCC1)CCC2	0.8
CCOc1cccc(C2c3[nH]c4ccccc4c3CCN2C(=O)c2ccc(OC)c(OC)c2)c1 (stereo not given)	-88.5*
COc1ccc2[nH]c(=O)c(CNc3c(C)cccc3C)cc2c1	0.7
CC(C)Nc1ncnc2c1cnn2-c1ccc(Cl)cc1	-73.2*
c1ccc(-c2cc3c(N4CCc5ccccc54)ncnc3s2)cc1	-42.7
COc1ccc(OC)c(S(=O)(=O)N2CCC3(CC2)Nc2cc(C)ccc2-n2cccc23)c1	11.1
C=CCn1c(Cc2c(C)[nH]c3ccccc23)nnc1SCC(=O)NCc1ccc(F)cc1	-3.0
COc1ccc(Cl)cc1NC(=O)Cn1nnc2ccccc21	-38.8
c1ccc(CN2Cc3nccn3CC(Cn3cccn3)C2)cc1 (stereo not given)	5.1
CC(C)Cc1ncc2c(n1)CN(C(=O)c1cccc(-c3ccco3)c1)C2	-39.9
CO[C@H]1CN(C)C(=O)c2cccc(C#N)c2OCC[C@@H]2CC[C@H](OC)[C@@H](CN(C)C(=O)[C@H]1C)O2	22.4
COc1cccc(CCNC(=O)CCN2CCCCO2)c1	7.0
O=C(NC1(c2ccc3c(c2)OCO3)CCCC1)c1ccc(=O)[nH]n1	4.4
Cc1ccsc1C(=O)Nc1ccc2c(c1)CCC(=O)N2C	281.8
O=C(C[C@H]1C=C[C@H](NC(=O)Cc2ccccn2)[C@H](CO)O1)NCCc1ccncc1	-12.8
N#CC(C(N)=O)C(=S)Nc1ccccc1 (stereo not given)	14.3
C[C@@H]1CN([C@@H](C)CO)C(=O)c2ccccc2-c2ccccc2CO[C@@H]1CN(C)Cc1cccc2c1OCCCO2	42.9

A run of entries of the results above:
SMILES	Tg IFNy HTS
COc1cccc(CCNC(=O)CCN2CCCCO2)c1	7.0
O=C(NC1(c2ccc3c(c2)OCO3)CCCC1)c1ccc(=O)[nH]n1	4.4
Cc1ccsc1C(=O)Nc1ccc2c(c1)CCC(=O)N2C	281.8
O=C(C[C@H]1C=C[C@H](NC(=O)Cc2ccccn2)[C@H](CO)O1)NCCc1ccncc1	-12.8
N#CC(C(N)=O)C(=S)Nc1ccccc1 (stereo not given)	14.3

The listing picks up, repeating the six entries before the break.
SMILES	Tg IFNy HTS
COc1cccc(CCNC(=O)CCN2CCCCO2)c1	7.0
O=C(NC1(c2ccc3c(c2)OCO3)CCCC1)c1ccc(=O)[nH]n1	4.4
Cc1ccsc1C(=O)Nc1ccc2c(c1)CCC(=O)N2C	281.8
O=C(C[C@H]1C=C[C@H](NC(=O)Cc2ccccn2)[C@H](CO)O1)NCCc1ccncc1	-12.8
N#CC(C(N)=O)C(=S)Nc1ccccc1 (stereo not given)	14.3
C[C@@H]1CN([C@@H](C)CO)C(=O)c2ccccc2-c2ccccc2CO[C@@H]1CN(C)Cc1cccc2c1OCCCO2	42.9
CCC(=O)N1CCCC1c1nc(CC(C)C)nn1-c1ccccc1F (stereo not given)	-9.4
Cc1oncc1C(=O)N1CCO[C@@H]2[C@H]1CC[C@H]2Oc1ccccn1	6.4
Clc1ccc(-c2noc(-c3cn[nH]c3-c3ccccc3)n2)cc1	-67.2
Cc1cnn(Cc2nc(-c3ccc(NC(=O)c4ccc(F)cc4)cc3)oc2C)c1	-82.4*
CCOC(=O)NC(=S)c1ccc(OC)cc1	53.6
NC(=O)c1cccc(C2CCNCC2)n1	19.6
CS(=O)(=O)N1CC(=O)N2[C@H](CO)[C@@H](c3ccc(C#CCC4CCCC4)cc3)[C@H]2C1	-38.8
CCOC1COC2(CCCN(C(=O)c3cnccn3)C2)C1 (stereo not given)	5.7
CCN1CCN(Cc2cc(C(=O)N(C)Cc3ccsc3)no2)CC1	16.9
CCN(CC)Cc1cc(=O)n2c(n1)CN(C(=O)c1ccc[nH]1)CCC2	-4.7
CC1(C)C(=O)OC(C(=O)c2ccc(Cl)cc2)C(C)(C)C1=O (stereo not given)	-31.5
COC[C@H]1CNC(=O)[C@H]2CCN(C(=O)N3CCCC3)CC[C@@H]12	2.1
COCc1nc(N2CCC(CCO)CC2)c2cnn(C)c2n1	-5.2
Cc1nc2ccc(NC(=O)CCCn3cncn3)cc2[nH]1	21.6
Cc1ccc2[nH]cc(CCNC(=O)C3CCN(c4ccc(N5CCCCC5)nn4)CC3)c2c1	40.8
CCCNC(=O)NC1CCN(c2ncc(C(F)(F)F)cc2Cl)CC1	-23.4
COc1ccc(Br)cc1-c1nc(Cn2nnc(C(=O)Nc3c(C)cc(C)cc3C)c2C)c(C)o1	189.5
Cc1cnn(Cc2nc(-c3ccc(NC(=O)c4cc(F)ccc4F)cc3)oc2C)c1	-88.5*
Cc1ccsc1/C=C/c1nc(N)nc(-c2ccccc2O)n1	-20.4
COc1ccc(CNC(=O)CC2N=C3c4ccccc4N=C(SCc4ccccc4Cl)N3C2=O)cc1 (stereo not given)	1.7
CCNCc1ccc(-c2ccc(Cl)cc2)o1	72.9
CN(C)CC(=O)N1[C@H](CO)[C@@H](c2ccccc2)C12CN(CCC(F)(F)F)C2	-58.9
O=C1c2ccccc2C2=Nc3ccccc3SC12O (stereo not given)	3.5
COc1ccc2c3c(n(C)c2c1)[C@@H](CO)N(C)CC31CN(C(=O)C2CCC2)C1	141.9
COc1ccc2[nH]cc(CCNc3ccc(S(=O)(=O)C(C)C)nn3)c2c1	-112.6*
O=C(NCc1ccc(F)cc1)c1c(O)c2cccnc2n(-c2cccc(F)c2)c1=O	-108.1*
CC(=O)N1CCN(CCOc2ccc(C3CCN(C4=Nn5c(nnc5C(F)(F)F)CC4)CC3)cc2)CC1	10.3
Cc1cc(C)n(C(C)c2n[nH]c(Cc3ccccc3)n2)n1 (stereo not given)	79.0
CCOCC12CCCOC1CCN(S(=O)(=O)C1CC1)C2 (stereo not given)	10.8
COCc1nc(C)c(CNC(=O)CC2CCc3ccccc32)s1 (stereo not given)	10.6
COC(=O)C[C@H]1C(C)(C)[C@@H](OC(C)=O)[C@@H]2CC3=C4CC(=O)O[C@@H](c5ccoc5)[C@]4(C)CCC3[C@@]1(C)C2=O (stereo not given in full)	27.6
CC(C)CN1C(=O)CCc2cc(NC(=O)C3CCC3)ccc21	87.8
CCn1c(=O)c(-c2nc(-c3ccc(OC(C)C)cc3)no2)c(O)c2ccccc21	40.2
O=C(NCc1nc(-c2ccncc2)n[nH]1)c1cccs1	-93.9*
C=CCN(Cc1ccccc1C)C(=O)CCC1CCCN(C)C1 (stereo not given)	-2.9
Cc1c(F)cccc1NC(=O)Cn1ncc2c(N3CCC(C)CC3)ncnc21	-5.8
O=C(NC1Cc2ccccc2C1)[C@H]1[C@H](CO)[C@H]2Cn3c(cccc3=O)[C@H]2N1C(=O)c1cnccn1	3.1
COc1ccc(NC(=O)C2=C(C)C(=O)OC23CCN(S(C)(=O)=O)CC3)c(OC)c1	40.0
COCCN1C(=O)N(C2Cc3ccccc3C2)C(=O)C12CCN(Cc1cc3ccccc3o1)CC2	14.2
COC(=O)c1sccc1S(=O)(=O)N1CCN(c2ncnc3c(C)csc23)CC1	-85.3*
OCC1CCN(Cc2cc3n(n2)CCCNC3)CC1	2.8
CCOCCN1CCCC(CCc2ccc(F)c(F)c2)C1 (stereo not given)	4.2
COc1ncnc2c1CCN(C(=O)NCc1cccc(F)c1)CC2	-2.2
O=C(O)C1CSC(CCc2ccccc2)N1 (stereo not given)	-4.9
COCC#Cc1ccc([C@H]2[C@H](CO)N3C(=O)CN(C(=O)c4ccncc4)C[C@@H]23)cc1	5.5
O=C(NCc1cnn2ccccc12)C1(c2ccccc2)CCCCC1	45.0
O=C(CN1CCN(Cc2ccccc2)CC1)c1ccc2c(c1)OCCO2	-28.3
CC(C)C(=O)Nc1cccnc1-c1ccc2c(c1)OCCO2	-3.8
CSc1ccc(NC(=O)N2CCC(c3nc(C(=O)N4CCOCC4)c(C)o3)CC2)cc1	64.9
CNC(=O)CN1CCO[C@H]2CN(C(=O)COC)C[C@@H]21	177.0
NC(=O)c1ccc[n+]([C@@H]2O[C@H](COP(=O)(O)OP(=O)(O)OC[C@H]3O[C@@H](n4cnc5c(N)ncnc54)[C@H](O)[C@@H]3O)[C@@H](O)[C@H]2O)c1	12.2
CCS(=O)(=O)N1CCN(C(=O)c2cc(CC(C)C)[nH]n2)CC1	-4.7
CCc1nc(SCC(=O)N2c3ccccc3Sc3ccccc32)c2ccccc2n1	-82.5*
Cc1ccc(S(=O)(=O)N2C[C@@H]3C[C@@H](c4nnc(C)o4)O[C@@H]3C2)cc1	1.1
CC[C@H]1C/C=C\C[C@H](c2ccc(OC)cc2OC)NC(=O)[C@H](C)CC(=O)N1	-10.4
CCOc1ncccc1CNC(=O)c1cc(NC(C)=O)ccc1Cl	-38.9
COc1ccc2c(c1)C=C(CN1CCC(c3cc(-c4cncnc4)cc(C)n3)CC1)CO2	-7.7
Cc1cccc(/N=c2\scc(-c3cccs3)n2Cc2ccccc2)n1	-13.3
CN1CCN(C(=O)c2cc3c(c(-c4cccc(Br)c4)n2)[C@@H](CCO)N([S@](=O)C(C)(C)C)C3)CC1	-14.7
O=C(CN1CCCC(c2cncc(-c3cccc(C(F)(F)F)c3)n2)C1)Nc1nccs1 (stereo not given)	-50.9
Later entries.
SMILES	Tg IFNy HTS
O=c1[nH]c2ccccc2n1C1CCN(CCOc2ccccc2)CC1	-49.4
O=C(CNCCNC(=O)c1ccncc1)Nc1ccc(Cl)cc1F	6.4
O=C(NCCN1C(=O)CSC1=O)c1ccc(N2C(=O)CCC2=O)cc1	1.9
C[C@@H]1CN([C@H](C)CO)C(=O)CCCn2nncc2CO[C@H]1CN(C)C(=O)Nc1ccc2c(c1)OCCO2	i
Cc1nc2c(C)cccc2cc1C(=O)n1nc(C)c(C(NC(N)=O)c2ccccc2)c1C (stereo not given)	-48.0
COc1ccc(-c2nn(-c3ccccc3)cc2CNCc2cc(C(C)C)no2)c(F)c1	64.1
COC(=O)C[C@@H]1CC[C@@H]2[C@H](COC[C@H](O)CN2S(=O)(=O)c2ccccc2OC)O1	5.0
O=C(CN1CCN(c2cccc(C(F)(F)F)c2)CC1)Nc1cccc(C(F)(F)F)c1	-0.6
CCCS(=O)(=O)N1CCC(N(C)Cc2cccnc2)CC1C(=O)O (stereo not given)	7.0
O=C(c1cccc(F)c1)N1CCN2C[C@H](OCC3CC3)C[C@@H]2C1	-33.7
O=C(NCCCc1ccccc1)c1nc(Nc2ccccc2)c2ccccc2n1	-45.6
Cc1cccc(-c2nc(C)c(CCNC(=O)C(=O)Nc3cc(Cl)ccc3C)s2)c1	152.0
CCC(c1cccnc1)N(C)CC1CCC(N)CC1 (stereo not given)	-53.4
FC(F)(F)c1cccc(CSc2ccccc2-n2cccc2)c1	30.3
O=C(NCCSC1=NCCN1)c1cccnc1Oc1ccccc1	33.7
Cc1noc(C)c1NC(=O)Nc1ccc2c(c1)C(=O)N(C)[C@@H]1CC[C@@H](CC(=O)N[C@H]3CCN(Cc4ccccc4)C3)O[C@@H]1CO2	-1.4
CCc1nc(-c2c(-c3ccccc3)ncn2CCCO)c(C)[nH]1	3.1
CC(=O)Nc1ccc(S(=O)(=O)N2CCOC(Cn3ccnc3)C2)cc1 (stereo not given)	50.1
CCc1ccc(S(=O)(=O)N2CCC3(CCC(C(=O)N4CCCC4)O3)CC2)cc1 (stereo not given)	-38.2
O=C(CCn1c(CO)nc2ccccc21)N1C[C@@H]2[C@@H]3CC[C@@H](C3)[C@@H]2C1	-2.2
COc1ccccc1NC(=O)N1C[C@H]2[C@@H](c3ccccc31)[C@@H](CO)N2C(=O)C1CCCC1	-6.1
CCCn1c(=S)[nH]c2cc(C(=O)N3CCC(O)(c4cccc(C(F)(F)F)c4)CC3)ccc2c1=O	-14.7
NCC[C@@H]1CC[C@@H](NS(=O)(=O)c2ccc(Cl)cc2)[C@@H](CO)O1	-15.2&-14.7
Fc1ccc2nc(CN3CCC4(CC3)OCCO4)cn2c1	36.9
COCC(=O)N1C[C@H]2[C@@H](c3ccccc31)[C@H](CO)N2C(=O)c1ccccc1F	8.9
CCOCC1CN(Cc2cc(C)on2)Cc2nnn(CC3CC3)c21 (stereo not given)	37.0
C[C@@H]1CN([C@H](C)CO)C(=O)Cc2cc(NC(=O)Cn3cnnn3)ccc2O[C@@H]1CN(C)S(=O)(=O)c1ccc(Cl)cc1	17.7
Cn1ccnc1SCCNC(=O)C1CC(=O)N(C2CC2)C1 (stereo not given)	5.7
Cc1ccc(C)n1-c1ccc(S(N)(=O)=O)cc1	-10.1
CCOc1ncc(Cl)cc1C(=O)O	18.9
COc1cccc(-c2nc3c(s2)CN(C(=O)NC2CCCCC2)CC3)c1	-17.3
COc1ccc(-c2nc(C)c(CCNC(=O)c3ccc(C(F)(F)F)cc3)s2)cc1OC	175.8
CC(C)(NC(=O)c1cccs1)C(=O)N1CCCC1c1ccccn1 (stereo not given)	-1.2
CCc1ccc(CN2CCCC(CNC(=O)c3ccncn3)C2)nc1 (stereo not given)	6.7
c1cnc(-c2noc(Cn3cc4c(n3)CCC4)n2)cn1	3.1
Cc1[nH]nc(CCC(=O)N2CC[C@@H](c3ccc4c(c3)OCO4)[C@H](O)C2)c1C	-42.9
Cc1ccc2nc(CN(C)c3ncnc4c3CCN(C(=O)C3CC3)C4)[nH]c2c1	0.4
C[C@H](Cn1nnc2ccccc21)NC(=O)c1cc(C(C)(C)C)nn1C	2.5
COc1ccccc1CN1CC[C@]2(CCC[C@@H]2C(=O)N2CCOCC2)C1	-1.6
O=c1[nH]c2ccccc2c(O)c1-c1nc(-c2cccs2)no1	-9.0
CCSc1nc(CC(=O)NCc2nc(C)cc(=O)[nH]2)cs1	2.4
Cc1nccn1-c1ccccc1CNC(=O)c1cc(C(C)C)nn1C	-2.0
N#Cc1cccc(NC(=O)C2CCN(S(=O)(=O)c3ccc4[nH]c(=O)ccc4c3)CC2)c1	90.2
CCOc1ccc(CNC(=O)C2=C(C)C(=O)OC23CCN(S(=O)(=O)CC)CC3)cc1	26.1

From PubChem BioAssay
